# Bioassay records from PubChem BioAssay.
# AF4-AF9 inh = MLL-AF4/AF9 protein interaction inhibition. P42568. AlphaScreen, biotin-AF4 peptide binding to FLAG-AF9. inhibition, % at 10 µM. 0.47% of 350,000 active;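 active = every replicate reaching a set inhibition limit, whatever the replicate mean, cut at about 25% in these data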;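 note: 0% = plate neutral control median and 100% = total signal loss; the record names both 10 and 1 µM as test concentration; the first replicate is given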
# Target sequence (P42568 whole entry, looked up): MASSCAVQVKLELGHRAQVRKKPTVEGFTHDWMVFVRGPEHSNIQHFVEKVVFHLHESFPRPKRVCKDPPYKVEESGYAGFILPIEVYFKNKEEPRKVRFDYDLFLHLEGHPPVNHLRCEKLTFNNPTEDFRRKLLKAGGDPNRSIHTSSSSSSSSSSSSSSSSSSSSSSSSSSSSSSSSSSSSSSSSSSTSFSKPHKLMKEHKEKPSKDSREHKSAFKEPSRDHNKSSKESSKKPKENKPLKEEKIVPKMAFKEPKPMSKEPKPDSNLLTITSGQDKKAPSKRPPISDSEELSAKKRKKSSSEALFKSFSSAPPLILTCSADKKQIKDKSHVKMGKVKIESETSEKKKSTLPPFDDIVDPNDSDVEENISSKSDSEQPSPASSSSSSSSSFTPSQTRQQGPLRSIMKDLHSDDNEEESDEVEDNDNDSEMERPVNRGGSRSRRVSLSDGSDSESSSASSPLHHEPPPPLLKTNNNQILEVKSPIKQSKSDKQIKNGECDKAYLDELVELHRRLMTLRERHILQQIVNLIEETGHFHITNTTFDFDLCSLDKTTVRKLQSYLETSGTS
# T cruzi inh = blocks replication of Trypanosoma cruzi | T. cruzi beta-gal in NIH3T3, luminescence, 90 h | inhibition, % (test concentration not listed) | 1.4% of 300,000 active | AID 1885;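 active = mean inhibition across valid replicates above about 55%, limit read from the data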;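 note: signal also drops with host cell toxicity which is not excluded here; 0% = plate median of DMSO wells and 100% = zero luminescence signal; higher percent means less beta-gal luminescence so fewer parasites; stock transfer was 50 nL into about 50 µL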
# UCH37 DUB inh = blocks the human deubiquitinase UCH37 | Q9Y5K5 | purified proteasome/UCH37, Ub-AMC cleavage fluorescence | inhibition, % (test concentration not listed) | 0.33% of 330,000 active;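 active = mean of two replicates above 20%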;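 note: 0% = compound-free wells with enzyme and 100% = wells lacking proteasome; stock transfer was 100 nL into about 20 µL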
# Target sequence (Q9Y5K5 whole entry, looked up): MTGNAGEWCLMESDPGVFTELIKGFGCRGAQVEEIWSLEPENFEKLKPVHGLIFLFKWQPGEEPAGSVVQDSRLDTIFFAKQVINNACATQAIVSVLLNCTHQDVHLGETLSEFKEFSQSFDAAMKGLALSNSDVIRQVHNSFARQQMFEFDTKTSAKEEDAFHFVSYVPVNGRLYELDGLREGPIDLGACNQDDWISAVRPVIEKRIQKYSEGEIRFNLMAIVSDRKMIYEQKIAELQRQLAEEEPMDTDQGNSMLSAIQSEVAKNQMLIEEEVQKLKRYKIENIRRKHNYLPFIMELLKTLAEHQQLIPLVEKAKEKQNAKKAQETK
#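 Schedule: 30 min plus 25 min, room temperature / Material: human UCH37 within purified proteasomes / Technique: AMC fluorescence intensity at 355/460 nm / Buffer or medium: pH 7.4 Tris-HCl (50 mM) with ovalbumin, ATP-MgCl2, DTT / Controls: wells without proteasome as full block, compound-free enzyme plus substrate as uninhibited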
# Ecoli rRNA inh = inhibits bacterial ribosomal RNA function over humanized ribosomes; E. coli WT GFP vs humanized-ribosome RFP mutants, fluorescence, 24 h; stronger effect = lower value; DMSO median 0, no signal -100; GFP signal change (wild-type ribosome), % (no concentration beside the values); 1.6% of 350,000 active;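 active = significant combined selectivity score with lowered wild-type GFP, culture density cut under 30%, mutant RFP and density less affected; inactive = any of these conditions unmet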; note: one replicate is shown; some compounds called inactive have numbers as strong as hits
# Beta apoptosis = blocks beta cell apoptosis; INS-1E cytokine-induced death, ATP luminescence, 48 h; percent of positive-control rescue, neutral wells zero; AID 435005; 0.8% of 300,000 active; protection from apoptosis, % (test concentration not listed);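 active = all replicates at 75% or more, or half of them and the mean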;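 note: 0% = cytokine-treated negative control wells and 100% = positive control rescue; higher means more ATP so stronger rescue from cytokine killing; wells of about 40 µL received 100 nL stock; the first replicate is given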
# Bfl-1 A1 inh = inhibitors of the anti-apoptotic protein A1, read as caspase activation | MEF A1-2A-BIM cells, Caspase-Glo 3/7 luminescence, 3 h; percent of clofoctol response, vehicle zero | caspase activation, % (test concentration not listed) | 0.066% of 330,000 active | AID 2462;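 active = over half of replicate activation scores above 10%, or exactly half above 10 with the replicate mean above 10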;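 note: wells of about 30 µL received 50 nL stock; many hits fall short of the cut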
# FGF22 binding = FGF22 (human) thermal shift binding; Q9HCT0; AID 651658; calls only at 9.99 µM; 1.5% of 340,000 active; recombinant FGF22 thermal shift, SYPRO orange fluorescence; percent of sucrose octasulfate shift, DMSO zero;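 active = melting point raised past a set limit in the mean and every replicate; three in four hits are not shown here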
# Target sequence (Q9HCT0 whole entry, looked up): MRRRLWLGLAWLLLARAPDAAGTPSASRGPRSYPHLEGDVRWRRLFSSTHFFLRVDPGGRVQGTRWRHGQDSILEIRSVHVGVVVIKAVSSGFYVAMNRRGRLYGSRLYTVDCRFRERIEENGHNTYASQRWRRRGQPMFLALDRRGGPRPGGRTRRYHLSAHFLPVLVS
# Ecoli growth = blocks Escherichia coli growth; OD600, 23 h; stronger effect = lower value; OD600 absorbance (test concentration not listed); 0.21% of 330,000 active; AID 1053175;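 active = OD600 absorbance below the run mean of sample wells minus 3.6 SD, in any replicate, cut at about 0.56 in these data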;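 note: stock transfer was 300 nL into about 60 µL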
# Ecoli rRNA inh OD600 = second read-out of Ecoli rRNA inh, no call of its own (marks repeat the call); OD600 change, %; measured here: OD600 growth;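 optical density of the mix in the first replicate; 0 = DMSO median and -100 = no signal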
# Ecoli rRNA inh RFP = also measured in Ecoli rRNA inh; calls as there; RFP signal change, %; measured here: RFP humanized mutant strains;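 first replicate; 0 = DMSO median and -100 = no signal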
# The depositor's hits bear a star; i = inactive; . = no result given; + = active, no number; & = joins results of further samples. Some of the compounds tested. The share of hits here may be higher or lower than overall.
SMILES,AF4-AF9 inh,T cruzi inh,UCH37 DUB inh,Ecoli rRNA inh,Ecoli rRNA inh OD600,Ecoli rRNA inh RFP,Beta apoptosis,Bfl-1 A1 inh,FGF22 binding,Ecoli growth
CCOc1cc(S(=O)(=O)NC2CCCC2)ccc1Cl,.,.,3.8,.,.,.,-0.2,0.6,.,0.703
COc1cccc2cc(CC(=O)c3ccccc3)c(=O)oc12,-10.7,-10.0,1.8,2.8,4.8,-3.0,-0.1,-0.2,i,0.694
COc1ccc(C[C@H]2CN3C(=NC[C@H]3Cc3ccccc3)N2CCNC(=O)c2ccc(C)c(Br)c2)cc1,.,39.0,1.2,.,.,.,5.8,2.8,.,.
COc1ccccc1-c1noc(CCCC(=O)NC2CCCC2)n1,-1.5,5.1,0.7,5.8,16.4,1.7,-0.6,0.1,i,0.691
COc1ccc(CC(=O)NC2=NCCS2)cc1,.,2.1,-1.1,.,.,.,-8.9,-0.5,.,0.693
Cc1ccc(CNC(=O)C2CCCN(C(=O)N(C)C)C2)cc1 (centres undefined),.,-13.1,1.1,.,.,.,-8.5,0.2,.,0.685
Cc1ccc(-c2ccc(CCC(=O)O)n2CC2CCCO2)cc1 (centres undefined),.,-5.6,-205.6,.,.,.,-33.1,-0.6,.,0.659
CC(C)Oc1ccc(/C(O)=C2/C(=O)C(=O)N(CCN(C)C)C2c2cccs2)cc1 (centres undefined),.,1.5,8.8,.,.,.,0.3,0.7,.,0.686
CCCCCOc1ccc(/C=N/NC(=O)c2nnn(-c3nonc3N)c2CN2CCCCCC2)cc1,-0.2,1.1,.,3.0,7.1,0.3,0.7,-1.0,i,.
O=C(NC1CCCC1)C(c1ccco1)N(Cc1ccccc1)C(=O)c1csnn1 (centres undefined),.,-2.1,2.7,.,.,.,-23.8,0.4,.,0.71
COc1ccc(C2CC(=O)C(C=NCCN3CCN(C(=S)Nc4ccccc4)CC3)=C(O)C2)cc1OC (centres undefined),0.9,-13.5,2.0,2.4,3.3,4.0,.,0.2,i,0.685
O=C(CCNS(=O)(=O)c1ccc(Br)s1)NCc1ccccc1Cl,1.0,7.2,0.7,-48.1,-67.5,-12.6,.,-0.5,i,0.685
O=C1CC(c2ccc(F)cc2)Sc2nc(C34CC5CC(CC(C5)C3)C4)nn21 (centres undefined),.,-11.1,5.1,.,.,.,-4.5,0.5,.,0.749
COc1ccc(Cl)cc1NC(=S)NCc1cccs1,1.7,-1.3,2.8,-15.8,-12.8,-9.8,0.4,-1.2,i,0.634
CC(=O)N1N=C(c2ccc(C)c([N+](=O)[O-])c2)OC1(C)C,-1.0,-1.6,7.0,-6.5,-7.4,-2.6,-2.6,0.4,i,0.626
NC(=O)c1nsc(C(=O)N(c2cccc(F)c2)C(C(=O)NC2CCCC2)c2ccc(O)cc2)c1N (centres undefined),1.5,-4.4,-114.9,1.7,1.7,2.4,2.3,0.4,i,0.706
O=C(Nc1cccnc1)c1cccc(S(=O)(=O)Nc2cccc(Cl)c2)c1,-6.2,.,3.2,-24.6,-44.5,-7.6,0.8,0.4,i,0.653
Cc1cccc(C)c1OCc1cc(C(=O)N2CCN(Cc3nccn3C)CC2)no1,4.0,5.2,6.4,1.2,-6.1,1.9,1.1,0.6,i,0.711
CCOc1ccc(Nc2c3c(nc4ncnn24)CC(C)CC3)cc1 (centres undefined),.,6.1,4.5,.,.,.,-0.6,-0.1,.,0.688
Cc1ccc(-n2c(SCC(=O)NCCN3C(=O)CSC3=O)nnc2-c2cccc(C)c2)cc1,.,13.6,0.5,.,.,.,-4.8,0.4,.,0.69
Cc1ccc(C(=O)NNc2cc(N3CCCC3)nc(N3CCCC3)n2)cc1,.,81.4*,49.3*,.,.,.,8.9,-0.7,.,0.647
CCOc1cc(-c2nc(C)c(C(C)=O)n2O)ccc1OCC(=O)Nc1ccccc1,0.2,-6.6,7.2,-7.2,0.4,7.9,-0.5,-0.7,i,0.673
C[C@H](CO)N1C[C@H](C)[C@@H](CN(C)C(=O)Nc2ccc3c(c2)OCO3)Oc2ccc(NC(=O)Nc3ccc(C(F)(F)F)cc3)cc2C1=O,6.5&5.6,.,0.4,0.2,-6.2,-1.3,-2.2,1.6,i,0.772
O=C(Cn1c(C(F)(F)F)nc2ccccc21)c1ccc(Br)cc1,.,1.8,1.2,.,.,.,-7.0,-0.3,.,0.688
CS(=O)(=O)N1CCCC(C(=O)NCCCN2CCC(Cc3ccccc3)CC2)C1 (centres undefined),.,-5.6,0.7,.,.,.,-2.3,0.6,.,0.697
COc1ccc(CNCC(O)(c2ccc(F)cc2)c2ccc(F)cc2)cc1OC,7.8,12.4,2.5,2.4,-6.6,1.5,18.4,0.9,i,0.674
Oc1ccc(CN2CCCc3ccccc32)c2cccnc12,.,-6.7,-0.3,.,.,.,103.4*,-1.4,.,0.79
COc1ccc([C@H]2CC(=O)C=C(c3cc(Cl)cc(Cl)c3)C2)cc1,0.6,.,1.2,1.7,-9.1,-14.8,3.6,-0.7,i,.
Fc1ccc(C2Nc3cccc4cccc(c34)N2)cc1,4.9,-6.2,.,10.8,15.3,-0.8,-3.9,-0.8,i,.
O=C(CSc1nc2ccccc2s1)N1CCOCC1,.,-5.9,3.7,.,.,.,-2.1,-0.7,.,0.652
O=C(NCc1ccc2c(c1)OCO2)c1n[nH]c(=O)c2ccccc12,-3.0,-3.6,-0.1,21.2,27.1,-0.5,2.1,0.3,i,0.696
Cn1c(=NC(=O)CS(=O)(=O)c2ccc(F)cc2)sc2ccccc21,-2.3,8.4,5.6,7.9,6.5,1.2,.,0.7,i,0.71
CCO[C@@H]1OC(C(=O)NCc2ccccc2)=C[C@H](c2ccc(Br)cc2)[C@H]1CCCO,0.0&-5.0,21.0,2.1,-27.0,-57.0,-8.6,4.1,-0.2,i,.
Cc1ccc(NC(=O)CCCC(=O)O)c(-c2nc3ccccc3[nH]c2=O)c1,-2.8,2.4,5.7,-6.4,3.9,-5.0,-0.9,0.4,i,0.646
COc1cccc(CNc2ccc(Br)cn2)c1O,.,-17.2,2.4,.,.,.,-3.9,-1.5,.,0.663
CN(CC(=O)Nc1ccc(N2CCOCC2)cc1)C(=O)CSc1ccc(Br)cc1,0.8,-1.6,1.5,3.5,8.8,0.8,-6.4,0.6,i,0.704

# Results in Ecoli rRNA inh RFP, for some of the entries so far:
SMILES	Ecoli rRNA inh RFP
CN(CC(=O)Nc1ccc(N2CCOCC2)cc1)C(=O)CSc1ccc(Br)cc1	0.8
Fc1ccc(C2Nc3cccc4cccc(c34)N2)cc1	-0.8

# Continuation.
SMILES,AF4-AF9 inh,T cruzi inh,UCH37 DUB inh,Ecoli rRNA inh,Ecoli rRNA inh OD600,Ecoli rRNA inh RFP,Beta apoptosis,Bfl-1 A1 inh,FGF22 binding,Ecoli growth
O=C(Nc1ccncc1)c1cc2ccccc2cc1O,0.1,2.8,4.6,-45.2,-62.9,-9.8,9.7,-11.7,i,0.591
Cc1ccc2nc(-c3ccccc3)oc(=O)c2c1,-2.9,0.6,-4.2,-0.3,-6.1,-5.3,0.8,-5.3,i,0.666
Cc1onc(-c2c(F)cccc2Cl)c1C(=O)OCC(=O)c1c(N)n(C)c(=O)n(C)c1=O,2.1,13.2,4.0,.,.,.,6.4,0.0,i,0.698
Cc1cc2nc(/N=C(\N)NC(=O)C(C)C)nc(C)c2cc1C,-0.3,3.6,3.1,.,.,.,3.8,-0.2,i,0.664
CC(=O)N1CCN(S(=O)(=O)c2c(C)n(C)c(=O)n(C)c2=O)CC1,-0.7,-2.4,3.2,7.0,8.3,1.6,-3.0,0.2,i,0.716
CC(C)Sc1nc(NCc2ccco2)c2c3c(sc2n1)COC(C)(C)C3,.,18.3,-9.6,.,.,.,-2.0,-0.2,.,0.702
Cc1ccc2oc(=O)c(/C=C(\O)C(C)(C)C)nc2c1,-1.8,-11.4,1.2,10.4,3.7,3.0,-6.1,1.0,i,0.683
Cn1c(=O)oc2cc(S(=O)(=O)Nc3ccc(Cl)cc3)ccc21,-3.7,7.1,1.1,-26.3,-23.6,-1.4,5.0,1.2,i,0.632
O=C(NNS(=O)(=O)c1ccccc1)c1cnn(-c2ccc(Cl)cc2)c1C(F)(F)F,20.0,-0.8,-1.0,-40.1*,20.1*,3.9*,-1.6,-0.4,i,0.681
Cc1ccccc1C(=O)OC1CCCN(C)C1 (centres undefined),-0.9,-11.9,1.8,10.0,18.4,3.5,4.7,0.5,i,0.723
CC1=NN(c2ccccc2)C(=O)/C1=C\N1CC(C)OC(C)C1 (centres undefined),.,2.6,2.1,.,.,.,2.4,-0.1,.,0.672
O=C(N/N=C/c1ccc(OCCCF)cc1)c1ccc(C(F)(F)F)cc1,-0.1,0.3,.,12.1,5.1,-0.2,-1.2,-0.1,i,.
Cc1cccc(N2CCN(C(=O)c3ccc(CNc4c(N5CCC(C)CC5)c(=O)c4=O)cc3)CC2C)c1 (centres undefined),1.8,3.0,6.0,-25.6,-46.4,-8.2,0.0,0.8,.,0.703
CCOC(=O)c1nc(N)c(=O)n(-c2ccccc2)n1,.,-8.0,3.8,.,.,.,0.8,2.3,.,0.705
Cc1cc(C)c2c(NC(=O)C3CC3)nn(C)c2n1,0.3,-4.5,.,10.9,11.6,1.8,0.5,0.4,i,.
COc1ccccc1N(C)S(=O)(=O)c1ccc(C(=O)Nc2ccc(C(N)=O)cc2)cc1,-2.0,.,-0.5,-5.6,-17.9,1.6,-7.0,-1.3,+,0.723
O=C(CCN1CCOCC1)NNC(=S)NC(=O)c1ccccc1,-2.2,-5.7,1.5,0.1,0.3,-0.4,2.5,0.2,i,0.528*
CCC(CC)C(=O)Nc1ccc(S(=O)(=O)Nc2nccs2)cc1,-2.1,-13.3,1.7,3.6,4.2,-3.4,-0.5,0.4,i,0.663
Cc1cccc(N2C(=O)CN(Cc3sccc3C)C2=S)c1,.,-8.0,3.7,.,.,.,.,1.2,.,0.671
Cc1ccc(C(=O)NNS(=O)(=O)c2ccc(F)cc2)cc1,-10.1,-2.7,.,-0.5,0.5,1.6,-6.5,-0.3,i,.
COc1cc(NC(=O)c2ccccc2C)c(OC)cc1NC(=O)CN1CCOCC1,4.4,4.3,1.0,0.1,4.3,1.2,-1.7,0.1,i,0.692
CCNC(=O)CN1C(=O)NC2(CCCCCC2)C1=O,.,-2.1,2.5,.,.,.,-3.9,-0.1,.,0.727
CC(C)OC(=O)C1=C(N)N2C(=O)CSC2=C(C(=O)OC(C)C)C1,.,-9.2,-4.3,.,.,.,-14.6,-0.9,.,0.749
CCN(Cc1ccncc1)C(=O)c1ccccc1NS(=O)(=O)c1ccc(Br)cc1,1.9,0.2,-4.8,-6.2,-9.5,-4.3,-3.7,0.8,.,0.669
CC(C)CN(C(=O)COc1ccc(C(C)(C)C)cc1)C1CCS(=O)(=O)C1 (centres undefined),0.0,2.7,3.4,-0.9,6.2,-1.1,-4.4,-0.2,i,0.707
